Vaccinia stage: blocks a specific stage of Vaccinia orthopoxvirus infection, primary screen, cell-based, single point; Vaccinia-infected cells, mCherry/Venus stage reporter fluorescence; hits give low values; some inactives read as strong as hits; activity change (mCherry), % (concentration not given with the values); actives 0.01% (n = 89,000);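 active = mCherry past -33% and 40 or more points under the early reporter, replicates agreeing; inconclusive = past -33% without that gap or agreement; tested in A549 cells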;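 note: scaled between vehicle wells and reference inhibitor wells; 23 nL library stock went into each well; one replicate is shown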
Vaccinia stage Venus: also measured in Vaccinia stage; calls as there; activity change (Venus), %; measured here: Venus reporter, other viral stage;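 negative = less Venus signal; first of two replicates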
Numbers without * were called inactive; ? = inconclusive; . = no result given.

molecule	Vaccinia stage Venus	Vaccinia stage
CCCN(C)C[C@H]1OCCCC[C@@H](C)Oc2ccc(NC(=O)Cc3ccccc3)cc2C(=O)N([C@H](C)CO)C[C@H]1C	-22	-31
C[C@H](CO)N1C[C@H](C)[C@@H](CN(C)S(=O)(=O)c2cccs2)OCCCC[C@H](C)Oc2ccc(NC(=O)Nc3ccc(C(F)(F)F)cc3)cc2C1=O	13	-10
C[C@H](CO)N1C[C@H](C)[C@H](CN(C)C(=O)c2ccccc2)OCCCC[C@H](C)Oc2ccc(NC(=O)NC3CCCCC3)cc2C1=O	-9	-1
COCC(=O)Nc1ccc2c(c1)C(=O)N(C)C[C@@H](OC)[C@@H](C)CN(C(=O)C1CCCC1)[C@@H](C)CO2	19	13
Cc1ccc(S(=O)(=O)Nc2ccc3c(c2)C(=O)N([C@H](C)CO)C[C@H](C)[C@@H](CN(C)C(=O)Nc2ccc(F)cc2)OCCCC[C@@H](C)O3)cc1	-20	-14
CC=Cc1ccc2n(c1=O)C[C@@H]1[C@@H](CO)[C@H](C(=O)NCC)N(Cc3nccs3)[C@H]21 (mixture of isomers)	5	0
COc1ccc(S(=O)(=O)N[C@H]2C=C[C@H](CC(=O)N3CCN(c4ccccc4)CC3)O[C@H]2CO)cc1	7	8
C[C@@H]1CN([C@@H](C)CO)C(=O)Cc2cc(NC(=O)CCCN(C)C)ccc2O[C@@H]1CN(C)S(=O)(=O)c1ccc(F)cc1	-1	8
C[C@@H]1CN([C@@H](C)CO)C(=O)c2cc(-c3ccc(F)cc3)cnc2O[C@H]1CN(C)C(=O)Cc1ccccc1	-4	-6
CCNC(=O)[C@H]1[C@H](CO)[C@H]2Cn3c(ccc(/C=C/c4ccccc4)c3=O)[C@H]2N1C(C)=O	3	-2
C[C@@H]1CN([C@H](C)CO)C(=O)Cc2cc(NC(=O)CCCCCC(=O)Nc3ccccc3N)ccc2O[C@H]1CN(C)Cc1ccc(Oc2ccccc2)cc1	.	?
O=C(C[C@H]1CC[C@@H](NC(=O)Nc2cccc(F)c2)[C@H](CO)O1)NCC1CC1	2	5
O=C(NCC[C@H]1CC[C@H](NC(=O)C2CCCC2)[C@@H](CO)O1)c1ccc(F)cc1	-10	1
COc1cccc(S(=O)(=O)N[C@@H]2C=C[C@@H](CC(=O)NCc3ccc(F)cc3)O[C@H]2CO)c1	0	0
O=C(N[C@H]1CC[C@H](CCn2cc(-c3ccccn3)nn2)O[C@@H]1CO)c1cccnc1	12	14
C[C@@H]1CN([C@@H](C)CO)C(=O)c2c(c3ccccc3n2C)-c2ccccc2CO[C@@H]1CN(C)S(=O)(=O)c1ccc([N+](=O)[O-])cc1	.	?
Cc1ccc(S(=O)(=O)N(C)C[C@H]2Oc3ncc(C#CC4(O)CCCC4)cc3C(=O)N([C@@H](C)CO)C[C@@H]2C)cc1	-20	-26
C[C@H]1CN([C@@H](C)CO)C(=O)c2cc(-c3ccccc3)cnc2O[C@H]1CN(C)Cc1cccnc1	12	36
C[C@@H]1CN([C@H](C)CO)C(=O)c2cccc(NS(=O)(=O)c3ccccc3)c2O[C@@H]1CN(C)CC1CC1	-2	1
O=C(CN1CCOCC1)N1CCCCN2[C@H](C1)[C@@H](c1ccc(C#Cc3ccccc3)cc1)[C@@H]2CO	-2	-13
O=C(NC[C@@H]1CC[C@H]2[C@H](CN2Cc2ccc(Oc3ccccc3)cc2)O1)C1CCOCC1	8	11
C[C@@H](NC(=O)C[C@@H]1CC[C@H]2[C@@H](COC[C@H](O)CN2C(=O)Nc2cc(Cl)cc(Cl)c2)O1)c1ccccc1	.	?
C[C@@H]1CN([C@@H](C)CO)C(=O)c2cccc(NS(=O)(=O)c3cn(C)cn3)c2O[C@H]1CN(C)Cc1ccc(Oc2ccccc2)cc1	8	9
C[C@@H]1CN([C@H](C)CO)S(=O)(=O)c2ccc(-c3ccc(F)cc3)cc2O[C@H]1CN(C)Cc1ccccc1C(=O)O	1	7
CNC[C@H]1Oc2ccc(N(C)C)cc2C(=O)N([C@@H](C)CO)C[C@H]1C	-1	16
COc1cccc(-c2ccc([C@H]3[C@@H](C#N)N(C(=O)Cc4ccncc4)[C@@H]3CO)cc2)c1	2	-2
C[C@@H]1CN([C@@H](C)CO)S(=O)(=O)c2ccc(-c3cccc(C#N)c3)cc2O[C@H]1CN(C)Cc1cccc(F)c1	-11	-14
O=C(Nc1ccccc1F)N1CC(=O)N2[C@H](CO)[C@@H](c3ccc(C#Cc4ccc(F)cc4)cc3)[C@H]2C1	.	?
C[C@@H]1CN([C@H](C)CO)C(=O)c2cc(NC(=O)Cc3cn(C)c4ccccc34)ccc2O[C@@H]1CN(C)S(=O)(=O)c1ccc(Cl)cc1	0	-9
C[C@H]1CN([C@@H](C)CO)C(=O)c2cc(NS(=O)(=O)c3ccc(Cl)cc3)ccc2O[C@H]1CN(C)C(=O)Nc1ccc2c(c1)OCO2	7	12
C[C@H](CO)N1C[C@H](C)[C@H](CN(C)S(=O)(=O)c2ccc(Cl)cc2)Oc2ccc(NS(=O)(=O)c3ccc(F)cc3)cc2C1=O	-9	-17
C[C@H]1CN([C@@H](C)CO)C(=O)CCCn2cc(nn2)CO[C@@H]1CN(C)S(C)(=O)=O	4	10
C[C@H](CO)N1C[C@H](C)[C@H](CN(C)S(=O)(=O)c2cn(C)cn2)Oc2c(NC(=O)c3nc4ccccc4s3)cccc2C1=O	-5	1
CC(=O)N(C)C[C@H]1Oc2cc(-c3ccccc3C)ccc2S(=O)(=O)N([C@H](C)CO)C[C@H]1C	12	20
CCCNC(=O)C[C@H]1CC[C@H]2[C@@H](COc3ccc(NS(=O)(=O)c4ccccc4C)cc3C(=O)N2C)O1	5	8
O=C(C[C@@H]1CC[C@@H]2[C@H](COC[C@H](O)CN2S(=O)(=O)c2cccc(Cl)c2)O1)Nc1ccccc1	.	?
C[C@@H]1CN([C@H](C)CO)C(=O)Cc2cc(NC(=O)NC3CCCCC3)ccc2O[C@@H]1CN(C)C(=O)Nc1ccc2c(c1)OCO2	18	17
Cc1noc(C)c1NC(=O)Nc1ccc2c(c1)C(=O)N([C@H](C)CO)C[C@H](C)[C@@H](CN(C)Cc1ccccc1)OCCCC[C@@H](C)O2	12	24
CN(C)CC#Cc1ccc([C@@H]2[C@H](CO)N3CCCCN(C(=O)CN(C)C)C[C@@H]23)cc1	0	19
C[C@@H]1CN([C@H](C)CO)C(=O)c2cccc(NC(=O)c3ccc(-c4nccs4)cc3)c2O[C@H]1CN(C)CC1CCCCC1	.	?
COc1ccc(C(=O)Nc2ccc3c(c2)OC[C@H](C)N(C)C[C@@H](C)[C@@H](OC)CN(C)C3=O)cc1	3	-2
O=C(Nc1ccc(F)cc1)N1CCCCN2[C@H](CO)[C@@H](c3ccc(-c4cccc(F)c4)cc3)[C@@H]2C1	.	?
C[C@@H]1CN([C@@H](C)CO)S(=O)(=O)c2ccc(-c3cccc(F)c3)cc2O[C@H]1CN(C)CC1CC1	-12	-18
Cc1ccc(S(=O)(=O)Nc2ccc3c(c2)CC(=O)N([C@@H](C)CO)C[C@@H](C)[C@H](CN(C)Cc2ccc(C(=O)O)cc2)O3)cc1	7	0
Cc1noc(C)c1S(=O)(=O)N(C)C[C@H]1Oc2ccc(NC(=O)Nc3ccc4c(c3)OCO4)cc2CC(=O)N([C@@H](C)CO)C[C@@H]1C	7	9
O=C1CN(S(=O)(=O)Cc2ccccc2)C[C@@H]2[C@H](c3ccc(C#Cc4ccccc4)cc3)[C@@H](CO)N12	-18	-25
CNC[C@@H]1OCCCC[C@@H](C)Oc2ccc(N(C)C)cc2C(=O)N([C@H](C)CO)C[C@H]1C	12	6
Cc1ccc(S(=O)(=O)N(C)C[C@@H]2Oc3cc(Br)ccc3S(=O)(=O)N([C@@H](C)CO)C[C@@H]2C)cc1	.	?
C[C@H](CO)N1C[C@H](C)[C@H](CN(C)Cc2ccccc2)Oc2ccc(NC(=O)Nc3ccc(F)cc3)cc2C1=O	-15	-25
C[C@H](CO)N1C[C@H](C)[C@@H](CN(C)S(=O)(=O)c2cn(C)cn2)Oc2cc(C#Cc3cccc(F)c3)ccc2S1(=O)=O	.	?
CC(C)NC(=O)N(C)C[C@H]1OCc2cn(nn2)CCCC(=O)N([C@@H](C)CO)C[C@@H]1C	16	0
C[C@H](CO)N1C[C@H](C)[C@@H](CN(C)Cc2ccc(C(F)(F)F)cc2)OCCCC[C@H](C)Oc2ccc(NC(=O)CCCN(C)C)cc2C1=O	-40	-27
CC(C)NC(=O)N1C[C@H]2[C@@H](c3ccccc31)[C@H](CO)N2C(=O)c1ccc(F)cc1	3	7
Cc1ccc(S(=O)(=O)N(C)C[C@H]2Oc3ccc(NC(=O)Nc4ccccc4)cc3CC(=O)N([C@@H](C)CO)C[C@@H]2C)cc1	14	12
COc1ccc(NC(=O)N(C)C[C@H]2Oc3c(NS(=O)(=O)c4ccc(C)cc4)cccc3C(=O)N([C@@H](C)CO)C[C@@H]2C)cc1	2	8
COc1ccccc1NC(=O)N[C@@H]1CC[C@H](CCn2cc(-c3ccccc3OC)nn2)O[C@@H]1CO	-3	-10
C[C@@H]1CN([C@@H](C)CO)C(=O)c2cccc(NC(=O)C3CC3)c2O[C@H]1CN(C)Cc1ccc(C(=O)O)cc1	5	10
O=C(C[C@H]1CC[C@@H]2[C@H](COC[C@H](O)CN2Cc2ccc3c(c2)OCO3)O1)Nc1ccc(-c2ccccc2)cc1	.	?
Cn1cnc(S(=O)(=O)N[C@H]2C=C[C@H](CC(=O)Nc3ccccc3)O[C@H]2CO)c1	-2	3
Cc1noc(C)c1S(=O)(=O)Nc1ccc2c(c1)C(=O)N([C@@H](C)CO)C[C@@H](C)[C@@H](CN(C)C)OCCCC[C@@H](C)O2	7	24

Grouped by structure, the entries above containing a COOH group.
molecule	Vaccinia stage Venus	Vaccinia stage
C[C@@H]1CN([C@H](C)CO)S(=O)(=O)c2ccc(-c3ccc(F)cc3)cc2O[C@H]1CN(C)Cc1ccccc1C(=O)O	1	7
Cc1ccc(S(=O)(=O)Nc2ccc3c(c2)CC(=O)N([C@@H](C)CO)C[C@@H](C)[C@H](CN(C)Cc2ccc(C(=O)O)cc2)O3)cc1	7	0
C[C@@H]1CN([C@@H](C)CO)C(=O)c2cccc(NC(=O)C3CC3)c2O[C@H]1CN(C)Cc1ccc(C(=O)O)cc1	5	10

Compounds from the list above that contain a CF3 group, in the order listed:
molecule	Vaccinia stage Venus	Vaccinia stage
C[C@H](CO)N1C[C@H](C)[C@@H](CN(C)S(=O)(=O)c2cccs2)OCCCC[C@H](C)Oc2ccc(NC(=O)Nc3ccc(C(F)(F)F)cc3)cc2C1=O	13	-10
C[C@H](CO)N1C[C@H](C)[C@@H](CN(C)Cc2ccc(C(F)(F)F)cc2)OCCCC[C@H](C)Oc2ccc(NC(=O)CCCN(C)C)cc2C1=O	-40	-27

Continuation.
molecule	Vaccinia stage Venus	Vaccinia stage
C/C=C/c1cnc2c(c1)C(=O)N([C@@H](C)CO)C[C@@H](C)[C@@H](CN(C)S(=O)(=O)c1ccccc1)O2	0	-2
COCC#Cc1ccc([C@H]2[C@@H](CO)N3C(=O)CN(C(=O)C4CCC4)C[C@H]23)cc1	2	2
COc1ccccc1-c1ccc2c(c1)[C@@H]1[C@@H](CCN1S(=O)(=O)c1ccc(C)cc1)[C@H](CO)N2	-8	0
CO[C@H]1CN(C)C(=O)c2cc(NC(=O)C3CCCC3)ccc2OC[C@@H](C)NC[C@H]1C	-2	1
O=C(NCC1CCCCC1)[C@H]1[C@H](CO)[C@H]2Cn3c(ccc(-c4ccc(F)cc4)c3=O)[C@@H]1N2	4	4
CN(C)CC(=O)N[C@@H]1CC[C@H](CC(=O)NCc2ccc(Cl)cc2)O[C@H]1CO	-1	-5
O=C(N[C@@H]1CC[C@@H](CC(=O)N2CCCCC2)O[C@@H]1CO)c1cccc(F)c1	5	2
CC=Cc1ccc2n(c1=O)C[C@@H]1[C@@H](CO)[C@H](C(=O)N3CCN(C)CC3)N(Cc3ccccc3F)[C@H]21 (mixture of isomers)	-1	-5
O=C(C[C@H]1CC[C@@H](NC(=O)CN2CCOCC2)[C@@H](CO)O1)NC1CCC1	3	7
C[C@H](CO)N1C[C@H](C)[C@@H](CN(C)CC2CC2)Oc2ccc(NS(=O)(=O)c3ccc(F)cc3)cc2CC1=O	-4	7
COc1ccc(S(=O)(=O)N(C)C[C@H]2OCCCC[C@H](C)Oc3ccc(NC(=O)Nc4ccc5c(c4)OCO5)cc3C(=O)N([C@H](C)CO)C[C@@H]2C)cc1	4	2
O=C(Nc1ccccc1)[C@H]1[C@H](CO)[C@H]2Cn3c(ccc(C4=CCCCC4)c3=O)[C@H]2N1Cc1cocn1	9	10
CCC(=O)N1CC(=O)N2[C@H](CO)[C@@H](c3ccc(C#Cc4cccc(OC)c4)cc3)[C@H]2C1	-22	-32
C[C@H]1CN([C@@H](C)CO)S(=O)(=O)c2ccc(/C=C/c3ccccc3)cc2O[C@@H]1CN(C)C(=O)c1ccc2c(c1)OCO2	.	?
COc1cccc(C(=O)N2C[C@@H]3[C@H](c4ccccc42)[C@@H](CO)N3Cc2ccccc2Cl)c1	-14	-24
CN(C)CC#Cc1ccc([C@H]2[C@H]3CN(CC4CCOCC4)CCCCN3[C@H]2CO)cc1	-10	10
COc1ccccc1-c1cn(CC[C@H]2CC[C@H](NC(=O)c3ccccc3F)[C@@H](CO)O2)nn1	-8	-12
COCC(=O)N1C[C@H]2[C@@H](c3ccccc31)[C@H](CO)N2C(=O)C1CCOCC1	9	15
C[C@@H]1CN([C@@H](C)CO)C(=O)c2cccc(NS(=O)(=O)c3ccc(F)cc3)c2O[C@@H]1CN(C)Cc1ccc(-c2ccccc2)cc1	.	?

High-throughput results as filed in PubChem.

Not all compounds are listed; the hit share may differ from the screen's.
